FGF22 binding: binders of human FGF22 protein, primary screen, FGF22 synaptogenesis inhibitor project, biophysical, thermal shift, single point; recombinant FGF22 thermal shift, SYPRO orange fluorescence; percent of sucrose octasulfate shift, DMSO zero; AID 651658, 2012; calls only at 9.99 µM; Fibroblast growth factor 22 (Homo sapiens), Q9HCT0; actives 1.5% (n = 340,000);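 active = melting point raised past a set limit in the mean and every replicate; inconclusive = no clear call; three in four hits are not shown here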
Target sequence (Q9HCT0 whole entry, looked up): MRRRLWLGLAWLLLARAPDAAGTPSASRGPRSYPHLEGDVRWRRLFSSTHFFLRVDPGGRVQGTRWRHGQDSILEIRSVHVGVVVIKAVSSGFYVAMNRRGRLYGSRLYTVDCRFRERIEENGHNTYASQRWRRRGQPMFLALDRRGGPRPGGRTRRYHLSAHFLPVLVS
Calb FLC: C. albicans growth inhibition with fluconazole, primary screen, CaCi-2 strain, Alamar Blue fluorescence; C. albicans CaCi-2 (fluconazole-resistant clinical isolate) + fluconazole, 48 h; growth inhibition, % (concentration not given with the values); actives 0.57% (n = 300,000); AID 1979, 2009;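 active = most replicates above 75%; inconclusive = exactly half above 75%; inactive = most below 75%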;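 also: all wells also contain fluconazole at 8 µg/ml as a sub-toxic cotreatment; 0% = median of DMSO wells and 100% = median of geldanamycin control wells; wells of about 8 µL received 7.5 nL stock; the first replicate is given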
Beta cell apopt: inhibitors of cytokine-induced beta cell apoptosis, primary screen, luminescence | actives 0.8% (n = 300,000) | INS-1E cytokine-induced death, ATP luminescence, 48 h; percent of positive-control rescue, neutral wells zero | protection from apoptosis, % (concentration not given with the values);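 active = all replicates at 75% or more, or half of them and the mean; inconclusive = half reach 75% but not the mean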;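 also: 0% = cytokine-treated negative control wells and 100% = positive control rescue; higher means more ATP so stronger rescue from cytokine killing; wells of about 40 µL received 100 nL stock; the first replicate is given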
rRNA inh HTS: reduced GFP signal of wild-type E. coli, primary screen, bacterial rRNA inhibitor project, GFP/RFP fluorescence, OD600, single point; E. coli WT GFP vs humanized-ribosome RFP mutants, 24 h; hits give low values; DMSO median 0, no signal -100; AID 720706, 2013; GFP signal change (wild-type ribosome), % (no concentration beside the values); actives 1.6% (n = 350,000);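 active = significant combined selectivity score with lowered wild-type GFP, culture density cut under 30%, mutant RFP and density less affected; inactive = any of these conditions unmet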; also: one replicate is shown; some compounds called inactive have numbers as strong as hits
ALR inh: inhibitors of human ALR sulfhydryl oxidase, primary screen, biochemical, H2O2 detection, HRP-luminol luminescence, single point; actives 3.8% (n = 290,000); inhibition, % (no concentration beside the values); purified ALR, DTT oxidation;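 active = mean and each replicate at 75% or more; inconclusive = only one of the two met; inactive = neither met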;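 also: stock transfer was 7.5 nL into about 7.5 µL; 0% = neutral wells and 100% = wells with inactivated enzyme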
Target sequence (P55789 whole entry, looked up): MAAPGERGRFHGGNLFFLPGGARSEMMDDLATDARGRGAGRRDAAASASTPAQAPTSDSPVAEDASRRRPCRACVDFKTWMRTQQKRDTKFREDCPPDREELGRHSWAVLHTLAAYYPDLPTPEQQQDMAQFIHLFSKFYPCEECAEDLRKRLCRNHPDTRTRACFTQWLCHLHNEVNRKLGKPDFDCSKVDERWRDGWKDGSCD
AF4-AF9 inh: inhibitors of AF4 peptide binding to AF9, primary screen, biochemical, AlphaScreen, biotin-AF4 peptide, FLAG-AF9, single point. Protein AF-9 (Homo sapiens), P42568. inhibition, % at 10 µM. actives 0.47% (n = 350,000). AID 651704, 2012;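 active = every replicate reaching a set inhibition limit, whatever the replicate mean, cut at about 25% in these data; inconclusive = mean inhibition reaches that limit but some replicates miss it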;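 also: 0% = plate neutral control median and 100% = total signal loss; the record names both 10 and 1 µM as test concentration; the first replicate is given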
Target sequence (P42568 whole entry, looked up): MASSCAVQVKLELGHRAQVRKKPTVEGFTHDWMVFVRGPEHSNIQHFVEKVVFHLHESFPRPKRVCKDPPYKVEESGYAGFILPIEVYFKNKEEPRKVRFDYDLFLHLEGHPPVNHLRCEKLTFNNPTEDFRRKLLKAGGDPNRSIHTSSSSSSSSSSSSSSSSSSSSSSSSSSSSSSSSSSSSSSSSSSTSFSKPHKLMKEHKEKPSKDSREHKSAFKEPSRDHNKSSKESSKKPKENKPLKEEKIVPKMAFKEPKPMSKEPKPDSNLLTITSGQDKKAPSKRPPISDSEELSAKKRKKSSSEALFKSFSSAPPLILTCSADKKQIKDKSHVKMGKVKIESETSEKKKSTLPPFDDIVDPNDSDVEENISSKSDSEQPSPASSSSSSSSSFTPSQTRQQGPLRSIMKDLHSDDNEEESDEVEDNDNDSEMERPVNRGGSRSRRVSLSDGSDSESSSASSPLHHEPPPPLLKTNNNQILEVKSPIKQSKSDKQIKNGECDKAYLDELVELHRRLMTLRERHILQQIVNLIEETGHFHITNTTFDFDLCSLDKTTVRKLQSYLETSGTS
T cruzi repl: inhibitors of intracellular T. cruzi growth, primary screen, luminescence, NIH3T3 host cells; T. cruzi beta-gal in NIH3T3, 90 h; inhibition, % (concentration not given with the values); actives 1.4% (n = 300,000);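 active = mean inhibition across valid replicates above about 55%, limit read from the data; inconclusive = mean below that limit but half or more replicates reach it; inactive = mean below it, under half of replicates reach it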;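 also: signal also drops with host cell toxicity which is not excluded here; 0% = plate median of DMSO wells and 100% = zero luminescence signal; higher percent means less beta-gal luminescence so fewer parasites; stock transfer was 50 nL into about 50 µL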
RanGTP-Imp inh: inhibitors of RanGTP-importin-beta interaction, primary screen, biochemical, FRET, CFP-Ran, YFP-importin-beta, homogeneous. inhibition, % (no concentration beside the values). actives 1.1% (n = 300,000). AID 2216, 2009. Ran GTPase (GTP-bound) - importin-beta complex. cell-free CFP-Ran/YFP-importin-beta FRET ratio;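 active = most replicates above 15%; inconclusive = exactly half above 15%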;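 also: 0% = DMSO wells and 100% = Ran loaded with GDP instead of GTP; wells of about 40 µL received 100 nL stock; the first replicate is given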
rRNA inh HTS OD600: second read-out of rRNA inh HTS, no call of its own (marks repeat the call); OD600 change, %; measured here: OD600 growth;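 optical density of the mix in the first replicate; 0 = DMSO median and -100 = no signal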
rRNA inh HTS RFP: further read-out of rRNA inh HTS, marked with its call; RFP signal change, %; measured here: RFP humanized mutant strains;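 first replicate; 0 = DMSO median and -100 = no signal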
* = called active by the depositor; & = joins results of further samples. An excerpt; the hit share may differ from the screen's.

`Cc1ccc2[nH]c(O)c(N=NC(=O)c3ccc(NS(=O)(=O)c4cccs4)cc3)c2c1` gave FGF22 binding inactive, Calb FLC -4, Beta cell apopt -6, rRNA inh HTS 3, ALR inh -9, AF4-AF9 inh 6.8, T cruzi repl 19, RanGTP-Imp inh 1.8, rRNA inh HTS OD600 -7 and rRNA inh HTS RFP -0.3.
O=C(C1CCC1)N1CCc2cc(S(=O)(=O)Nc3ccc4c(c3)OCCO4)ccc21 was read as Calb FLC -4, Beta cell apopt 79*, rRNA inh HTS 3, ALR inh 10, T cruzi repl 7, RanGTP-Imp inh 1.6, rRNA inh HTS OD600 -12 and rRNA inh HTS RFP -3.0.
`CCOC(=O)c1c(NC(=S)Nc2ccccc2)sc2c1CCCCC2` gave Calb FLC 2, Beta cell apopt 6, ALR inh 5, T cruzi repl 15 and RanGTP-Imp inh 2.4.
For COc1ccc(C(c2nnnn2C2CCCC2)N2CCN(C(=O)c3ccco3)CC2)cc1OC (stereo not given) the results were FGF22 binding inactive, Calb FLC -2, Beta cell apopt -3, rRNA inh HTS 2, ALR inh -16, AF4-AF9 inh -1.0, T cruzi repl 5, RanGTP-Imp inh 1.4, rRNA inh HTS OD600 -4 and rRNA inh HTS RFP -3.3.
For COc1ccc(-c2noc(C3CCCN(C(=O)c4ccc(C)cc4)C3)n2)cc1 (stereo not given) the results were FGF22 binding inactive, Calb FLC -9, Beta cell apopt -1, rRNA inh HTS -16, ALR inh -2, AF4-AF9 inh 9.3, T cruzi repl 17, RanGTP-Imp inh -0.1, rRNA inh HTS OD600 -23 and rRNA inh HTS RFP -8.4.
Screening O=C(CSCc1ccccc1)N1CCN(c2ccc(F)cc2)CC1 returned Calb FLC -5, Beta cell apopt -8, ALR inh 88*, T cruzi repl -11 and RanGTP-Imp inh -1.6.
CN(Cc1ccccc1)C(=O)CN1C(=O)NC(C)(c2ccc(C(C)(C)C)cc2)C1=O (stereo not given) was read as FGF22 binding inactive, Calb FLC 1, rRNA inh HTS -20, ALR inh 3, AF4-AF9 inh 1.3, T cruzi repl 6, RanGTP-Imp inh -0.1, rRNA inh HTS OD600 -58 and rRNA inh HTS RFP 14.
Screening CN(C)CCCOC(=O)c1ccccc1Cl returned Calb FLC 0, Beta cell apopt -2, T cruzi repl 14 and RanGTP-Imp inh inconclusive.
O=C(O)C1C2CCC(O2)C1C(=O)Nc1ccc(F)c(Cl)c1 (stereo not given) was read as FGF22 binding inactive, Calb FLC 4, Beta cell apopt -5, rRNA inh HTS 12, ALR inh -8, AF4-AF9 inh -1.1, T cruzi repl -10, RanGTP-Imp inh 2.8, rRNA inh HTS OD600 15 and rRNA inh HTS RFP -0.5.
Screening O=C(CNS(=O)(=O)c1ccc(Br)s1)NCCc1ccc(Cl)cc1 returned FGF22 binding inactive, Calb FLC 29, Beta cell apopt 2, ALR inh 0, AF4-AF9 inh 2.5, T cruzi repl 5 and RanGTP-Imp inh 6.0.

3 structures from above, sorted by SMILES length, rising:
Screening O=C(CSCc1ccccc1)N1CCN(c2ccc(F)cc2)CC1 returned Calb FLC -5, Beta cell apopt -8, ALR inh 88*, T cruzi repl -11 and RanGTP-Imp inh -1.6.
`CCOC(=O)c1c(NC(=S)Nc2ccccc2)sc2c1CCCCC2` gave Calb FLC 2, Beta cell apopt 6, ALR inh 5, T cruzi repl 15 and RanGTP-Imp inh 2.4.
O=C(O)C1C2CCC(O2)C1C(=O)Nc1ccc(F)c(Cl)c1 (stereo not given) was read as FGF22 binding inactive, Calb FLC 4, Beta cell apopt -5, rRNA inh HTS 12, ALR inh -8, AF4-AF9 inh -1.1, T cruzi repl -10, RanGTP-Imp inh 2.8, rRNA inh HTS OD600 15 and rRNA inh HTS RFP -0.5.

Going on with the list.
Screening CCOC(=O)C1CCN(C(=O)CN2C(=O)NC3(CCCCC3)C2=O)CC1 returned FGF22 binding inactive, Beta cell apopt -6, ALR inh -2 and AF4-AF9 inh 0.9.
For Cc1ccsc1CN(C(=O)c1ccccc1)C1CCS(=O)(=O)C1 (stereo not given) the results were FGF22 binding inactive, Calb FLC 5, Beta cell apopt 3, rRNA inh HTS 8, ALR inh 4, AF4-AF9 inh -1.0, T cruzi repl 6, RanGTP-Imp inh -1.0, rRNA inh HTS OD600 7 and rRNA inh HTS RFP 1.1.
`O=C(O)C1=C[C@H](c2ccc(Br)cc2)C[C@H](OCCCCO)O1` gave FGF22 binding inactive, Calb FLC 4, Beta cell apopt 0, rRNA inh HTS -4, ALR inh 33, AF4-AF9 inh -3.1&3.8, T cruzi repl 3, RanGTP-Imp inh -1.9, rRNA inh HTS OD600 7 and rRNA inh HTS RFP -5.7.
CCN(C(=O)C(C)OC(=O)CCCNC(=O)c1ccc(Cl)cc1)c1ccccc1 (stereo not given) was read as FGF22 binding inactive, Calb FLC 5, Beta cell apopt 2, rRNA inh HTS -4, ALR inh -2, AF4-AF9 inh 2.2, T cruzi repl 8, RanGTP-Imp inh -1.8, rRNA inh HTS OD600 1 and rRNA inh HTS RFP 0.2.
`CSCC[C@H](NC(=O)OC(C)(C)C)c1nnc(SCC(=O)N(C)C)o1` gave Calb FLC 7, Beta cell apopt 7, ALR inh 33, T cruzi repl -11 and RanGTP-Imp inh 0.1.
Screening COC(=O)CN(c1ccc(C)cc1)S(=O)(=O)c1ccc(F)cc1 returned FGF22 binding inactive, Calb FLC 14, rRNA inh HTS -23, ALR inh -20, AF4-AF9 inh -7.6, T cruzi repl -9, RanGTP-Imp inh inconclusive, rRNA inh HTS OD600 -45 and rRNA inh HTS RFP -9.0.
`CCCCN1CC(C(=O)NCc2ccc(C)cc2)CC1=O` (stereo not given) gave Calb FLC -22, Beta cell apopt -8, ALR inh -1, T cruzi repl -10 and RanGTP-Imp inh 1.7.
CC(C)(C)NC(=O)CCN(/N=C/c1ccccc1)C1=NS(=O)(=O)c2ccccc21 was read as FGF22 binding inactive, Calb FLC 6, Beta cell apopt 4, rRNA inh HTS 4, ALR inh -17, AF4-AF9 inh -4.7, T cruzi repl 9, RanGTP-Imp inh -1.7, rRNA inh HTS OD600 5 and rRNA inh HTS RFP 0.4.
CC(=O)c1cccc(NC(=O)NC2CCCCC2)c1 was read as FGF22 binding inactive, Calb FLC -1, Beta cell apopt 0, rRNA inh HTS 6, ALR inh 14, AF4-AF9 inh -7.5, T cruzi repl 5, RanGTP-Imp inh -0.5, rRNA inh HTS OD600 -6 and rRNA inh HTS RFP -6.7.
Screening CCN(CC(=O)Nc1c(F)cccc1F)C(=O)C1CCN(S(=O)(=O)c2ccc(F)cc2)CC1 returned FGF22 binding inactive, Calb FLC 0, Beta cell apopt 0, rRNA inh HTS 8, ALR inh 5, AF4-AF9 inh 3.6, T cruzi repl -7, rRNA inh HTS OD600 3 and rRNA inh HTS RFP -0.6.
Screening COCCNc1nc(N)c([N+](=O)[O-])c(NCC2CCCO2)n1 (stereo not given) returned Beta cell apopt -6, ALR inh -3, T cruzi repl -37 and RanGTP-Imp inh 4.1.
CCCCN(CC)C(=O)Cc1ccc(Br)cc1 was read as FGF22 binding inactive, Calb FLC -2, Beta cell apopt -1, rRNA inh HTS 5, ALR inh -12, AF4-AF9 inh -18, T cruzi repl 3, RanGTP-Imp inh 4.2, rRNA inh HTS OD600 11 and rRNA inh HTS RFP -2.3.
`Cc1ncc(CO)c(CNc2ccc(Oc3ccccc3)cc2)c1O` gave FGF22 binding inactive, Calb FLC 26, Beta cell apopt 11, rRNA inh HTS -12, ALR inh 98*, AF4-AF9 inh 11, T cruzi repl -2, RanGTP-Imp inh -3.1, rRNA inh HTS OD600 -18 and rRNA inh HTS RFP -0.5.
Screening Cc1nn(-c2nnc(C)c(=O)[nH]2)c(C)c1SCC(=O)Nc1ccc(F)cc1 returned Calb FLC 0, Beta cell apopt -11, rRNA inh HTS 4, ALR inh 99*, T cruzi repl -14, RanGTP-Imp inh 5.0, rRNA inh HTS OD600 -1 and rRNA inh HTS RFP 0.5.
Screening CCCCC1(C)OC(=O)C(=Cc2ccc(N(CC)CC)cc2)C(=O)O1 (stereo not given) returned Calb FLC -10, Beta cell apopt -1, ALR inh 97*, T cruzi repl -15 and RanGTP-Imp inh 2.1.
Cc1ccc(-n2c(SCc3ccc(C#N)cc3)nnc2-c2ccccn2)cc1 was read as Calb FLC 35, Beta cell apopt 7, T cruzi repl 18 and RanGTP-Imp inh -0.5.
`COc1ccc2cc(CCNC(=O)c3ccc(S(=O)(=O)N4CCCC4)cc3)c(=O)[nH]c2c1` gave FGF22 binding inactive, Calb FLC -4, Beta cell apopt 0, rRNA inh HTS 6, ALR inh -3, AF4-AF9 inh -0.1, T cruzi repl -8, RanGTP-Imp inh -4.4, rRNA inh HTS OD600 3 and rRNA inh HTS RFP -1.4.
CC1(CCC(=O)N2CCCC(Nc3ccc(F)cc3)C2)CC1 (stereo not given) was read as FGF22 binding inactive, Calb FLC -3, Beta cell apopt 22, rRNA inh HTS 0, ALR inh 98*, AF4-AF9 inh 2.6, T cruzi repl -5, RanGTP-Imp inh 3.1, rRNA inh HTS OD600 -5 and rRNA inh HTS RFP 0.5.
CCN(CC)S(=O)(=O)c1ccc(O)c(C(=O)OCC(=O)NC2CCCC2)c1 was read as FGF22 binding inactive, Calb FLC -7, Beta cell apopt 4, rRNA inh HTS 0, AF4-AF9 inh 0.7, T cruzi repl -11, RanGTP-Imp inh -4.1, rRNA inh HTS OD600 12 and rRNA inh HTS RFP 0.0.
Screening Cc1cccc(C(=O)OCC(=O)Nc2ccc(F)cc2)c1 returned FGF22 binding inactive, Calb FLC 9, rRNA inh HTS 3, ALR inh -4, AF4-AF9 inh -1.4, T cruzi repl -4, RanGTP-Imp inh -1.2, rRNA inh HTS OD600 -9 and rRNA inh HTS RFP -2.3.
Screening O=C(Nc1c(-c2ccccc2)nc2ccccn12)c1cccc(F)c1 returned FGF22 binding inactive, Calb FLC 4, Beta cell apopt -5, rRNA inh HTS -9, ALR inh 18, AF4-AF9 inh 1.1, T cruzi repl -1, RanGTP-Imp inh 1.0, rRNA inh HTS OD600 -15 and rRNA inh HTS RFP 0.5.
O=C(COC(=O)/C=C/c1ccc(C(F)(F)F)cc1)NC1CCS(=O)(=O)C1 (stereo not given) was read as FGF22 binding inactive, Calb FLC 5, Beta cell apopt -2, rRNA inh HTS 2, ALR inh 8, AF4-AF9 inh -19, T cruzi repl 9, RanGTP-Imp inh -0.8, rRNA inh HTS OD600 5 and rRNA inh HTS RFP -1.2.
Screening CCCN1CCc2c(sc(NC(=O)c3ccc(S(=O)(=O)N(C)c4ccccc4)cc3)c2C(=O)NC)C1 returned FGF22 binding inactive, Calb FLC 5, Beta cell apopt 8, rRNA inh HTS -4, AF4-AF9 inh 4.4, T cruzi repl 35, RanGTP-Imp inh 10, rRNA inh HTS OD600 4 and rRNA inh HTS RFP 30.
